OX1R antag-1 = OX1R (HCRTR1) antagonists, primary screen, fluorescence, CHO/OX1R cells, Fluo-8 calcium, orexin A; AID 434989, 2010; inhibition, % at 5 µM; actives 0.43% (n = 330,000); Fluo-8 calcium fluorescence;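 active means inhibition above its plate's threshold, mean inhibition of all tested compounds on the plate plus 3 SD, cut at about 37% in these data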;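 further: 0% = orexin A challenge wells and 100% = SB-334867-A antagonist wells; not every result past the cut was called active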
Target sequence (O43613 whole entry, looked up): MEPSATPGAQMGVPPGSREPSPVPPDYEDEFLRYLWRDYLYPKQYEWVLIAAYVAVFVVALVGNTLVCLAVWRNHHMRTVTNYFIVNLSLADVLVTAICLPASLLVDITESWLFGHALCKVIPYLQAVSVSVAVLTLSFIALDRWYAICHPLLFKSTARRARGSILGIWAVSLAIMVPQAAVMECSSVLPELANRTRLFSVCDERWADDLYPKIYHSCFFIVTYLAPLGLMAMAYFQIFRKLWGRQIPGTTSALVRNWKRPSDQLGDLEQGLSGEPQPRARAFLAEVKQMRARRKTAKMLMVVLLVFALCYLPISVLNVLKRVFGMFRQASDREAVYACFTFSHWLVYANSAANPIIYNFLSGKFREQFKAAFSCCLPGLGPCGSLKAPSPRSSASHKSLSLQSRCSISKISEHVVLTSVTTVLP
OX1R antag-2 = antagonists of human orexin 1 receptor (OX1R). Orexin/Hypocretin receptor type 1 (Homo sapiens), O43613. OX1R-expressing cells, FRET antagonist read-out. inhibition, % at 6.6 µM. actives 1.8% (n = 330,000). AID 485270, 2010; in the data active means inhibition mostly above about 38%, no sharp cut-off; inactive means mostly below about 40%;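 further: 0% = agonist challenge alone and 100% = reference antagonist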
* marks the source's active call; other numbers are inactive results.

What do the screens show for `Cc1nc2c(-c3ccccc3)cnn2c(N2CCOCC2)c1C`?
OX1R antag-1: -23; OX1R antag-2: -6

Results for COc1ccc(C(=O)[C@H]2[C@H]3C(=O)N(c4ccccc4)C(=O)[C@H]3C3C=CC=NN32)cc1 (stereo not given in full) ?
OX1R antag-1: -30; OX1R antag-2: 13

What do the screens show for `Clc1ccc(-c2nc3ncccn3c2Nc2ccc3c(c2)OCCO3)cc1`?
OX1R antag-1: -13; OX1R antag-2: 21

What do the screens show for `CC(C)=CC(=O)OCC(=O)Nc1ncc(Cl)c(C)c1Cl`?
OX1R antag-1: -21; OX1R antag-2: 9

Results for CC(C)(C)NC(=O)c1nn2c(C(F)(F)F)cc(-c3ccccc3)nc2c1Br ?
OX1R antag-1: -7; OX1R antag-2: 1

What do the screens show for `CN(C)c1ccc(C(=O)NC2CCCc3ccccc32)cc1` (stereo not given)?
OX1R antag-1: -15; OX1R antag-2: 28

Results for CC(=O)Nc1sc(C)c(C)c1C(=O)OCC(=O)N(C)c1c(N)n(Cc2ccccc2)c(=O)[nH]c1=O ?
OX1R antag-1: -23; OX1R antag-2: 16

How did CC(C)(C)c1cc2cccnc2n1Cc1cccc(Cl)c1 do in these assays?
OX1R antag-1: -20; OX1R antag-2: 3

How did O=C(CSc1nnc(-c2ccc(Br)o2)n1Cc1ccccc1)c1ccccc1F do in these assays?
OX1R antag-1: -30; OX1R antag-2: 19

Results for COc1ccc(/C=N\NC(=O)c2ccccc2Br)cc1COc1ccc(F)cc1 ?
OX1R antag-1: -11; OX1R antag-2: 17

Results for COc1ccc(C2c3c(nc[nH]c3=O)Oc3nc[nH]c(=O)c32)cc1 ?
OX1R antag-1: -5; OX1R antag-2: 11

What do the screens show for `COc1cccc(-n2c(Cc3cc(=O)[nH]c(=O)[nH]3)nnc2SCC(=O)NC2CCCCC2)c1`?
OX1R antag-1: -2; OX1R antag-2: 18

How did Cc1cccc(NC(=S)N(C)C2CCCCC2)c1 do in these assays?
OX1R antag-1: 7; OX1R antag-2: 20

What do the screens show for `O=C(O)c1ccc(/C=N/Nc2ccc(S(=O)(=O)N3CCCC3)cc2[N+](=O)[O-])cc1`?
OX1R antag-1: -9; OX1R antag-2: 17

How did Cc1c(C(=O)N(C)c2cccc(Cl)c2)cnn1-c1ccccc1 do in these assays?
OX1R antag-1: -14; OX1R antag-2: -1

How did COc1ccc2c(c1)C(=O)Nc1cc(Cl)ccc1N2 do in these assays?
OX1R antag-1: -26; OX1R antag-2: 6

Results for Cc1ccc(NC(=O)CSC(N)=O)cc1Cl ?
OX1R antag-1: -8; OX1R antag-2: -1

How did O=C(N/N=C/c1ccc(Br)cc1)c1cc[n+]([O-])cc1 do in these assays?
OX1R antag-1: -1; OX1R antag-2: 48

How did CCCCn1c(=O)[nH]c(=O)c2c1nc(-c1ccc(OCCC)c(OCC)c1)n2CCOC do in these assays?
OX1R antag-1: -25; OX1R antag-2: 9

Results for CCCCC(=O)Nc1ccc(NC(=O)c2ccc([N+](=O)[O-])cc2)cc1OC ?
OX1R antag-1: 30; OX1R antag-2: 26

What do the screens show for `CNC(=S)N/N=C/c1c(C)nn(-c2ccc(F)cc2)c1Cl`?
OX1R antag-1: 7; OX1R antag-2: 16

What do the screens show for `CC1CCN(C(=O)c2cc(Cl)nc3ccccc23)CC1`?
OX1R antag-1: -20; OX1R antag-2: 7

Results for CC(=O)Oc1ccc(/C=N/NC(=S)Nc2ccccc2)cc1 ?
OX1R antag-1: -3; OX1R antag-2: 13

What do the screens show for `Cc1cc(C)nc(SCc2c(F)cccc2Cl)n1`?
OX1R antag-1: -25; OX1R antag-2: 1

Results for CCNC(=O)CCCOc1ccc(Cl)cc1Cl ?
OX1R antag-1: -1; OX1R antag-2: 16

How did COc1ccc(OCC(O)CNC(=O)Nc2cccc3ccccc23)cc1 (stereo not given) do in these assays?
OX1R antag-1: -11; OX1R antag-2: 8

How did COc1ccccc1-c1noc(CCC(=O)NC2CCCC2)n1 do in these assays?
OX1R antag-1: -19; OX1R antag-2: 17

What do the screens show for `CCC(C)N(C(=O)COc1ccccc1C#N)C1CCS(=O)(=O)C1` (stereo not given)?
OX1R antag-1: -12; OX1R antag-2: 10

How did CCC(C)(NC(=O)c1cccc(N2C(=O)CSC2c2ccccc2)c1)C(=O)Nc1ccccc1C (stereo not given) do in these assays?
OX1R antag-1: -20; OX1R antag-2: 29

What do the screens show for `O=C(COC(=O)/C=C/c1ccc(OC(F)F)cc1)Nc1ccc(N2CCOCC2)cc1`?
OX1R antag-1: -12; OX1R antag-2: 13

How did O=C(COC(=O)CCC1CCCC1)Nc1ccccc1OC(F)F do in these assays?
OX1R antag-1: -4; OX1R antag-2: 14

Results for O=c1cc(CCl)[nH]c2nc3ccccc3n12 ?
OX1R antag-1: 3; OX1R antag-2: 20

Results for O=C(C(=O)N1CCN(c2ccc(F)cc2)CC1)c1c[nH]c2ccccc12 ?
OX1R antag-1: -27; OX1R antag-2: 19

How did CCCCn1c(N)c(N(CCOC)C(=O)CSc2nnc(-c3ccc(F)cc3)n2N)c(=O)[nH]c1=O do in these assays?
OX1R antag-1: -10; OX1R antag-2: 13

How did COc1cccc2cc3c(=O)n(-c4ccccc4)nc-3oc12 do in these assays?
OX1R antag-1: -20; OX1R antag-2: 12

Results for O=C(NN1CCOCC1)c1ccc(F)cc1 ?
OX1R antag-1: -5; OX1R antag-2: 3

What do the screens show for `Cc1ccc(S(=O)(=O)NCCC(=O)N2CC(C)OC(C)C2)cc1` (stereo not given)?
OX1R antag-1: 0; OX1R antag-2: 15

Results for O=C(COC(=O)C1=COCCO1)Nc1cccc(S(=O)(=O)N2CCOCC2)c1 ?
OX1R antag-1: -9; OX1R antag-2: 11

How did COc1ccccc1CN1CC(C(=O)NCC2CCCO2)CC1=O (stereo not given) do in these assays?
OX1R antag-1: -4; OX1R antag-2: 19

Results for Cc1ccc2[nH]c(=O)c(CN(CCCN3CCOCC3)C(=O)Nc3cccc(Cl)c3)cc2c1 ?
OX1R antag-1: -17; OX1R antag-2: 21

Taken from the results shown (3 entries):
Results for CCNC(=O)CCCOc1ccc(Cl)cc1Cl ?
OX1R antag-1: -1; OX1R antag-2: 16

How did COc1ccc(OCC(O)CNC(=O)Nc2cccc3ccccc23)cc1 (stereo not given) do in these assays?
OX1R antag-1: -11; OX1R antag-2: 8

How did COc1ccccc1-c1noc(CCC(=O)NC2CCCC2)n1 do in these assays?
OX1R antag-1: -19; OX1R antag-2: 17

Part of the list above in order of molar mass, highest first.
Results for Cc1ccc2[nH]c(=O)c(CN(CCCN3CCOCC3)C(=O)Nc3cccc(Cl)c3)cc2c1 ?
OX1R antag-1: -17; OX1R antag-2: 21

What do the screens show for `O=C(COC(=O)/C=C/c1ccc(OC(F)F)cc1)Nc1ccc(N2CCOCC2)cc1`?
OX1R antag-1: -12; OX1R antag-2: 13

Results for CCCCC(=O)Nc1ccc(NC(=O)c2ccc([N+](=O)[O-])cc2)cc1OC ?
OX1R antag-1: 30; OX1R antag-2: 26

What do the screens show for `CCC(C)N(C(=O)COc1ccccc1C#N)C1CCS(=O)(=O)C1` (stereo not given)?
OX1R antag-1: -12; OX1R antag-2: 10

Further records follow:
Results for O=C(/C=C/c1cc([N+](=O)[O-])ccc1OC(F)F)Nc1cccc2ccccc12 ?
OX1R antag-1: -14; OX1R antag-2: 3

What do the screens show for `O=C(c1ccc(N2CCCC2)c([N+](=O)[O-])c1)N1CCN(c2ccccn2)CC1`?
OX1R antag-1: -27; OX1R antag-2: 17

What do the screens show for `O=C(c1ccc(Cl)c(Cl)c1)N1CCC(=O)N(C(COCc2ccc(Cl)cc2)Cc2ccccc2)CC1` (stereo not given)?
OX1R antag-1: -28; OX1R antag-2: 11

Results for Cc1cccc(C)c1NC(=O)CNC(=O)c1ccccc1 ?
OX1R antag-1: -4; OX1R antag-2: 12

Results for S=C(NCc1ccco1)N/N=C/c1cccnc1 ?
OX1R antag-1: -4; OX1R antag-2: 16

What do the screens show for `CN(C(=O)COC(=O)c1cccs1)c1c(N)n(Cc2ccccc2)c(=O)[nH]c1=O`?
OX1R antag-1: -16; OX1R antag-2: 13

What do the screens show for `O=C1c2ccccc2C(=O)N1CCOc1ccccc1Cl`?
OX1R antag-1: -16; OX1R antag-2: 30

How did CC1Cc2nc(SCC(=O)Nc3ccc4c(c3)OCO4)n(CCc3ccccc3)c(=O)c2S1 (stereo not given) do in these assays?
OX1R antag-1: -4; OX1R antag-2: 5

Results for CCOC(=O)c1c(/N=C/C2=C(O)CCCC2=O)sc2c1CCCC2 ?
OX1R antag-1: -37; OX1R antag-2: 28

What do the screens show for `Cn1cc(C[C@H](NC(=O)OC(C)(C)C)C(=O)N[C@H](CO)Cc2ccccc2)c2ccccc21`?
OX1R antag-1: -33; OX1R antag-2: 18

Results for Fc1ccc(CN2CCN(c3ncccn3)CC2)c(F)c1 ?
OX1R antag-1: -5; OX1R antag-2: -2

What do the screens show for `Nc1c(C(=O)N2CCOCC2)oc2ccccc12`?
OX1R antag-1: -4; OX1R antag-2: 3

What do the screens show for `CCSc1ccccc1C(=O)Nc1ccc([N+](=O)[O-])cc1OC`?
OX1R antag-1: -7; OX1R antag-2: 19

How did OCc1ncccc1O do in these assays?
OX1R antag-1: -11; OX1R antag-2: 5

What do the screens show for `Cc1ccc(S(=O)(=O)/N=C2\CN(C)C(=O)N2C)cc1`?
OX1R antag-1: -2; OX1R antag-2: 6

Results for Cc1c(NS(=O)(=O)c2ccc(N=NN(C)C)cc2)c(=O)n(-c2ccccc2)n1C ?
OX1R antag-1: -14; OX1R antag-2: 11

What do the screens show for `CCOc1ccc(N(CC(=O)NC2CCCC2)S(=O)(=O)c2ccccc2)cc1`?
OX1R antag-1: -27; OX1R antag-2: 9

Results for CC(C)(C)C(=O)Nc1nnc(SCC(=O)NC2CC2)s1 ?
OX1R antag-1: -2; OX1R antag-2: 10

Results for COc1ccc(-c2nc3ccccc3c(=O)n2NC(=O)Cc2ccccc2)cc1 ?
OX1R antag-1: -8; OX1R antag-2: 0

How did COc1ccc(CN2CC(C(=O)NCCCN3CCN(C)CC3)CC2=O)cc1 (stereo not given) do in these assays?
OX1R antag-1: -10; OX1R antag-2: 2

What do the screens show for `O=C(c1ccccc1)c1cccn1CC(=O)N1CCN(c2ccc(F)cc2)CC1`?
OX1R antag-1: -30; OX1R antag-2: 15

How did COc1cc(NC(=O)c2ccc(C)cc2)c(OC)cc1NC(=O)CN1CCOCC1 do in these assays?
OX1R antag-1: -5; OX1R antag-2: 23

Results for CCCCN1CN(Cc2ccco2)CNC1=S ?
OX1R antag-1: 10; OX1R antag-2: 1

What do the screens show for `COc1ccccc1NS(=O)(=O)c1cccc(C(=O)NCc2ccccn2)c1`?
OX1R antag-1: -16; OX1R antag-2: 31

What do the screens show for `CC(C)=CCC/C(C)=C/C=N/NC(=O)c1ccccc1[N+](=O)[O-]`?
OX1R antag-1: -4; OX1R antag-2: 6

How did Cc1cccn2c(=O)c(/C=C(\C#N)S(=O)(=O)c3ccc(Cl)cc3)c(N3CCC(C(N)=O)CC3)nc12 do in these assays?
OX1R antag-1: -10; OX1R antag-2: 7

How did CCCCn1nc2cc(C(=O)NCc3ccc(OC)cc3)ccc2c1OCC do in these assays?
OX1R antag-1: -19; OX1R antag-2: 28

How did Cc1cccc(-n2nnc(C(=O)NCc3ccccn3)c2N)c1 do in these assays?
OX1R antag-1: -24; OX1R antag-2: 7

What do the screens show for `CCOC(=O)CC1OC(=O)c2cc3c(cc21)C(=O)OC3CC(=O)OCC` (stereo not given)?
OX1R antag-1: 0; OX1R antag-2: 25

What do the screens show for `Cc1nc(NC(=O)CCCC(=O)Nc2nc(C)c(C)s2)sc1C`?
OX1R antag-1: -2; OX1R antag-2: 13

How did COc1ccc(N2C(=O)CCC(C(=O)N3CCN(c4ccccn4)CC3)C2c2ccc(F)cc2)cc1 (stereo not given) do in these assays?
OX1R antag-1: -29; OX1R antag-2: -3

How did CCCCN(CC)CCCNC(=O)c1cc2c(=O)[nH]c3ccccc3c2s1 do in these assays?
OX1R antag-1: -1; OX1R antag-2: -3

How did CCOc1ccc(C(=O)NC(C(=O)NCCc2ccc(S(N)(=O)=O)cc2)C(C)C)cc1 (stereo not given) do in these assays?
OX1R antag-1: -30; OX1R antag-2: 3

Results for CC(=O)Nc1ccc(C#Cc2ccc(NC(C)=O)cc2)cc1 ?
OX1R antag-1: -6; OX1R antag-2: 34

Results for CC1=C(C(N)=O)C(c2ccccc2)n2nc(-c3ccncc3)nc2N1 (stereo not given) ?
OX1R antag-1: -10; OX1R antag-2: 25

What do the screens show for `Cc1ccc(C)n1-n1c(C)nc2sc3c(c2c1=O)CCCCC3`?
OX1R antag-1: -18; OX1R antag-2: 47

What do the screens show for `Cc1ccnc(N/C=C(/NC(=O)c2ccccc2)C(=O)N/N=C\c2ccc(F)cc2)n1`?
OX1R antag-1: -28; OX1R antag-2: 15

How did CCn1c(SCC(=O)N/N=C/c2ccc(C)o2)nnc1-c1ccc(C)cc1 do in these assays?
OX1R antag-1: -14; OX1R antag-2: 26

Results for CCOC(=O)Cn1nc(/C=C/c2ccc(C(C)C)cc2)ccc1=O ?
OX1R antag-1: -5; OX1R antag-2: 14

What do the screens show for `Cc1cc(Br)cc2c1N(C)C(=O)C2(c1ccc(O)cc1)c1ccc(O)cc1`?
OX1R antag-1: 18; OX1R antag-2: 5

Results for COc1ccc(CCNC(=O)CSc2nc(=O)n3cc(C)ccc3n2)cc1OC ?
OX1R antag-1: -24; OX1R antag-2: 1

How did CC(C)c1cc(C(=O)O)c2cnn(C(C)C)c2n1 do in these assays?
OX1R antag-1: -13; OX1R antag-2: 20

What do the screens show for `CCOC(=O)c1c(NC(=O)CC2SC(N)=NC2=O)sc2c1CCCC2` (stereo not given)?
OX1R antag-1: -13; OX1R antag-2: -1

How did CCCc1ccc2oc(C(=O)NCCCN3CCOCC3)c(C)c2c1 do in these assays?
OX1R antag-1: -32; OX1R antag-2: 21

Results for Cc1ccc(-c2nnc(SCC(=O)O)n2N)cc1 ?
OX1R antag-1: 0; OX1R antag-2: 0

This is a subset, and most or all hits are left out here.
